# Screening data (PubChem BioAssay)
# Mtb betalactam = beta-lactam sensitization of Mtb H37Rv. M. tuberculosis H37Rv growth with meropenem, percent inhibition; hits of this screen are not shown here. inhibition, % at 25 µM. 330,000 tested, 0.27% active;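 active = about 74% or more and at least 40 points above the plate without the antibiotic, then above 30% in a dose series; inconclusive = first-round hits that could not be retested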;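 also: growth measured after seven days incubation then overnight dye step; 0% = bacteria only wells and 100% = bacteria with antibiotic; twin plates without the antibiotic show which effects depend on it; some results filed as inactive read as strong as hits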
# Mtb H37Rv = M. tuberculosis H37Rv growth inhibitors, H37Rv strain (AID 1626); M. tuberculosis H37Rv growth inhibition; higher % means a stronger effect; inhibition, % at 10 µM, or IC50 in µM where a hit was titrated; 220,000 tested, 0.95% active;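 active = confirmed in a dose series; inconclusive = inhibition above 80% but not taken into the dose series; inactive = below 80% or under 30% at every dose of the series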;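 also: bacteria incubated seven days before Alamar blue readout; 0% = bacteria only wells and 100% = bacteria with antibiotic wells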
# RecA intein inh = Mtb RecA intein splicing inhibition; P9WHJ3; cell-free RecA intein splicing, fluorescence; inhibition, %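 (about 9 µM by stock and volumes)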; 290,000 tested, 0.75% active; AID 2221; in the data active = inhibition above about 30%; inconclusive = no clear call, values can overlap the other calls;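 also: 0% = vehicle wells and 100% = reference inhibitor control wells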
# Target sequence (P9WHJ3 whole entry, looked up): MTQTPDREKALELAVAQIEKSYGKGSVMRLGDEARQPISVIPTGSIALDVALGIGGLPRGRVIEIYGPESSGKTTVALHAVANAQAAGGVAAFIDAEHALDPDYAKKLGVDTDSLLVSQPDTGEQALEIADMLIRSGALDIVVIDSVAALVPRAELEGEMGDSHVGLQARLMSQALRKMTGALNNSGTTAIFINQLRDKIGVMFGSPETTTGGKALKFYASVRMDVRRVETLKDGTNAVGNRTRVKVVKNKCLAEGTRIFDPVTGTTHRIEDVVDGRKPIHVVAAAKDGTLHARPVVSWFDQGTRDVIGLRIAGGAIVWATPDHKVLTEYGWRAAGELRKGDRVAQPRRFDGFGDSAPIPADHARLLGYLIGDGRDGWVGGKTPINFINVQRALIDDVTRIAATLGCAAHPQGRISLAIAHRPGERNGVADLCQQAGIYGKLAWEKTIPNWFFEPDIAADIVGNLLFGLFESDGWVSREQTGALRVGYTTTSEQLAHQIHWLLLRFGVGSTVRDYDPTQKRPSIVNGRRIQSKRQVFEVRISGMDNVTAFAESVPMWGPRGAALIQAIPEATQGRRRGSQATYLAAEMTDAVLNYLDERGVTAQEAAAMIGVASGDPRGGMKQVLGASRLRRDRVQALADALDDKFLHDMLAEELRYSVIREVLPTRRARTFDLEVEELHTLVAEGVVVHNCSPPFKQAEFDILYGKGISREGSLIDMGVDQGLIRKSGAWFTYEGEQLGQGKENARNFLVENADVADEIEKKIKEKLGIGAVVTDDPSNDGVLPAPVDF
# YopH PTP inh = blocks Yersinia enterocolitica YopH tyrosine phosphatase; fluorescence Ex485/Em525; inhibition, %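 (about 10 µM by stock and volumes)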; 140,000 tested, 0.16% active; AID 898;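 active = inhibition of 50% or more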;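 also: controls were vehicle for no effect and minimum signal wells for full effect; inactives centre near -20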
# Arbovirus anti = arbovirus infection inhibition. arbovirus infection cell-based antiviral screen. inhibition, % at 10 µM. 200,000 tested, 0.37% active;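 active = inhibition from about 30%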;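 also: bluetongue infection of BSR cells; cell survival read as ATP light after 72 h; 0% = infected wells without compound and 100% = uninfected wells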
# Arbovirus anti repeat = second read-out of Arbovirus anti, no call of its own (marks repeat the call); inhibition, %; measured here: 10K subset replicate screen; many hits read low in the repeat;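 first of two repeat runs on a subset; 0% = infected and 100% = uninfected wells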
# Starred values were filed as active, the others as inactive; ? = inconclusive; / = no result given. Not all compounds are listed; count on the stated rates, not on these rows.
SMILES,Mtb betalactam,Mtb H37Rv,RecA intein inh,YopH PTP inh,Arbovirus anti,others
CNC[C@@H](Cc1ccccc1)NC[C@@H](CC1CCCCC1)NCCCc1ccccc1,99,/,4.7,/,/,
CCc1nnc(NC(=O)Nc2ccccc2OC)s1,-3,-8%,0.3,-48,11,
CCC1CCCCN1CCNC(=O)C1CCN(S(=O)(=O)c2cccc3nsnc23)CC1 (stereo not drawn),-2,/,-0.2,/,/,
COC(=O)C1CCN(CC(=O)Nc2cc(Cl)ccc2OC)CC1,4,-7%,4.9,/,-4,
Cc1ccc(NC(=O)c2ccc(OC(=S)N3CCOCC3)cc2)cc1,-15,-2%,-2.0,-38,3,
c1ccc(-c2csc(Nc3ncccn3)n2)cc1,8,9%,1.8,-15,-26,
CCOc1ccc(C(=O)Nc2ccc(S(=O)(=O)NCC3CCCO3)cc2)cc1OCC (stereo not drawn),-8,/,-0.4,/,/,
COc1ccc(N2CCN(c3nc4c(C)cccn4c(=O)c3/C=C(\C#N)C(N)=O)CC2)cc1,39,/,-28,/,/,
COc1cccc(/C=C2\C(=O)C(=O)c3ccccc32)c1,1,-2%,3.5,-21,-12,
COc1ccc(-c2nnc(SCC(=O)N3CCCC3)o2)cc1,-1,/,0.1,/,/,
Cc1nnc(SCc2ccccc2)nc1/C=C/NOCc1ccc(Cl)cc1Cl,7,0%,5.7,5,2,
COC(=O)CNC(c1ccccc1)c1cc(Cl)ccc1NC(=O)c1cccc(Cl)c1 (stereo not drawn),9,7%,14,-21,-2,
N/C(=N\OC(=O)CSc1ccccc1)c1ccncc1,-5,/,-0.7,/,/,
CSCC[C@H](NC(=O)c1cccs1)C(=O)N1CCC2(CC1)NCCc1[nH]cnc12,-5,/,0.5,/,/,
CC(=O)NN1C(=O)c2ccccc2NC1c1ccccn1 (stereo not drawn),3,7%,-3.5,-26,-3,
CCN1CC=C(c2c[nH]c3ccccc23)CC1,-4,1%,-1.9,12,-4,
NNC(=O)COc1ccc(F)cc1,4,5%,-2.6,-7,1,
Cc1ccc(CSc2nnc(-c3ccncc3)o2)c(C)c1,-2,-1%,1.0,/,-21,
COc1ccc(/C=C2\SC(=S)N(CCC(=O)N3CCCCC3)C2=O)cc1,6,/,7.0,/,/,
NS(=O)(=O)c1ccc(N=Cc2c(O)n(C3CCCCC3)c(=O)n(C3CCCCC3)c2=O)cc1,97,58%,12,-57,-39,
O=CNC(Cc1ccccc1)C(=O)O (stereo not drawn),-8,-6%,-4.8,3,1,
Cc1cccc(Oc2cc([N+](=O)[O-])cc3c2C(=O)Nc2ccccc2O3)c1,-5,3%,-0.7,1,0,
COCCn1c(C)cc(C(=O)CSc2nc3ccccc3c(=O)n2C(C)COC)c1C (stereo not drawn),1,4%,4.3,/,9,
COc1ccc2c(CC(=O)Nc3cccc(S(=O)(=O)N4CCOCC4)c3)coc2c1,1,8%,1.5,23,7,
Cc1cc(C(=O)Nc2ccc3c(c2)OCCO3)c2ccccc2n1,9,-3%,0.6,/,2,
COc1cc(NC(=O)c2onc(C)c2Cl)c(OC)cc1Cl,-2,5%,0.1,-30,5,Arbovirus anti repeat=-4
COc1ccccc1C(=O)n1nc(-c2cccnc2)nc1NCc1ccccc1,/,-9%,/,/,-8,
CC(=O)Nc1ccc(N(C(=O)CNC(=O)c2ccco2)C(C(=O)NCc2ccco2)c2ccccc2)cc1 (stereo not drawn),-1,-2%,-0.3,/,/,
CC(C)NC(=O)c1sc2nc3c(c(-c4cccs4)c2c1N)CN(C)CC3,-5,5%,-4.0,-20,-2,
O=C(NCc1ccco1)c1cc2nc(C3CC3)cc(C(F)(F)F)n2n1,-11,4%,-1.1,-201,-3,
Cc1sc(-c2ccccn2)nc1OC(=O)c1cccc(Cl)c1Cl,5,3%,12,-27,1,
Cc1ccc(NC(=O)CN2CCN(CCN=CC3=C(O)CC(c4ccc(C)cc4)CC3=O)CC2)cc1 (stereo not drawn),7,-3%,-4.9,/,6,
COc1ccc(OC)c(C2=NOC(C(=O)NCc3cccs3)C2)c1 (stereo not drawn),3,-5%,/,/,-16,
CCN1C(=O)N(CC)C2C1N(C(C)=O)C(=O)N2C(C)=O (stereo not drawn),-13,0%,4.8,-23,8,
COc1ccccc1-c1nnc(NC(=O)c2ccc(S(=O)(=O)N3CCOCC3)cc2)o1,64,/,1.5,/,/,
COc1ccccc1C(=O)Nc1sc2c(c1C(=O)NCc1ccco1)CCCC2,/,8%,-2.6,-22,-25,
COc1cc(OC)cc(C(=O)Nc2nnc(-c3cccnc3)o2)c1,68,?,-2.7,/,-2,
Cc1sc2nc(COC(=O)C(NC(=O)c3ccc(Cl)cc3Cl)C(C)C)[nH]c(=O)c2c1C (stereo not drawn),4,-1%,-0.5,-22,-7,
Cc1cc(C(F)(F)F)nn1CC(=O)NCc1ccccc1,-3,-2%,-0.7,-13,4,
CCOC(=O)c1ccc(-c2ccc3c(c2)CCC3)nc1C,64,/,-0.9,/,/,
CC1C(=O)N2CCCc3cc(S(=O)(=O)NCc4ccc(Cl)cc4)cc1c32 (stereo not drawn),1,/,0.4,/,/,
O=C(Nc1nccs1)c1cc2sccc2n1Cc1ccc(F)cc1,-5,0%,-1.2,-40,-9,
Cn1cc(C(=O)c2cccc(Cl)c2Cl)cc1C(=O)O,-3,-10%,0.7,-25,9,
CC(C)CC(=O)NC(=S)NCCc1ccccc1,80,6%,0.8,-28,0,
Cc1cccc(NC(=O)N2CCC(C(=O)c3ccc(F)cc3)CC2)c1,1,/,1.7,/,/,

# Of the compounds above, these have an NH in an aromatic ring:
SMILES,Mtb betalactam,Mtb H37Rv,RecA intein inh,YopH PTP inh,Arbovirus anti,others
CSCC[C@H](NC(=O)c1cccs1)C(=O)N1CCC2(CC1)NCCc1[nH]cnc12,-5,/,0.5,/,/,
CCN1CC=C(c2c[nH]c3ccccc23)CC1,-4,1%,-1.9,12,-4,
Cc1sc2nc(COC(=O)C(NC(=O)c3ccc(Cl)cc3Cl)C(C)C)[nH]c(=O)c2c1C (stereo not drawn),4,-1%,-0.5,-22,-7,

# Returning to the listing, repeating the 2 entries before the break.
SMILES,Mtb betalactam,Mtb H37Rv,RecA intein inh,YopH PTP inh,Arbovirus anti,others
CC(C)CC(=O)NC(=S)NCCc1ccccc1,80,6%,0.8,-28,0,
Cc1cccc(NC(=O)N2CCC(C(=O)c3ccc(F)cc3)CC2)c1,1,/,1.7,/,/,
Cn1c(=NC(=O)c2ccccc2[N+](=O)[O-])sc2cc(S(C)(=O)=O)ccc21,1,0%,-3.2,-15,-7,
CN(C)/N=C/C=C1\CCC/C(=C\c2ccc(F)c(F)c2)C1=O,96,21%,2.0,/,4,
Cc1ccc(C(=O)NNC(=O)CCCCC(=O)NNC(=O)c2ccc(C)cc2)cc1,-5,/,1.4,/,/,
Cc1ccc(Nc2cc(=O)oc3ccccc23)c(C)c1,5,-3%,4.5,-41,-18,
CCOc1c(OC(C)=O)ccc(/C=C/c2ccc3cccc(OC)c3n2)c1[N+](=O)[O-],3,-2%,0.6,-25,19,
Cn1nc([N+](=O)[O-])nc1Sc1nnnn1-c1ccc(C(=O)O)cc1,-10,-7%,2.8,/,-1,
Cc1ccc(/C=N/N2CCN(Cc3ccc(Cl)cc3)CC2)o1,-2,1%,0.1,-13,-2,
CCOc1ccc(NC(=O)COc2ccc(C(=O)NC(C)c3ccc(S(N)(=O)=O)cc3)cc2OC)cc1 (stereo not drawn),-9,/,-0.6,/,/,
CCc1nnc(NC(=O)CC23CC4CC(CC(C4)C2)C3)s1,-4,/,-4.7,/,/,
N#Cc1ccc(NC(=O)Nc2ccc(Cl)cc2)cc1,88,?,4.3,-45,-16,Arbovirus anti repeat=-11
O=C(CCc1ccccc1)Nc1ccc(Cl)cn1,-6,7%,-1.3,-106,-4,
CC1CCCCC1NC(=O)c1nn(C)c2c1CS(=O)(=O)c1ccccc1-2 (stereo not drawn),3,/,-2.7,/,/,
Cc1ccc(NC(=O)COC(=O)C2COc3ccccc3O2)cc1S(=O)(=O)N1CCOCC1 (stereo not drawn),3,2%,1.7,-28,0,
CC(/C=C1\SC(=S)N(c2ccc(C(=O)O)cc2)C1=O)=C\c1ccccc1,6,10%,1.6,/,/,
O=C(Nc1cccc(-n2cnnn2)c1)c1ccc(Cl)cc1Cl,-11,/,3.5,/,/,

# 2 records drawn at random from the list so far, as already listed:
SMILES,Mtb betalactam,Mtb H37Rv,RecA intein inh,YopH PTP inh,Arbovirus anti,others
N#Cc1ccc(NC(=O)Nc2ccc(Cl)cc2)cc1,88,?,4.3,-45,-16,Arbovirus anti repeat=-11
Cc1ccc(NC(=O)COC(=O)C2COc3ccccc3O2)cc1S(=O)(=O)N1CCOCC1 (stereo not drawn),3,2%,1.7,-28,0,

# (next part)
SMILES,Mtb betalactam,Mtb H37Rv,RecA intein inh,YopH PTP inh,Arbovirus anti,others
CC(=O)N1CCN(c2ccc(Nc3ncnc4c3oc3ccccc34)cc2)CC1,44,2%,-0.6,-9,-18,
Cc1cc([N+](=O)[O-])ccc1NC(=O)c1cccc(NC(=O)C(C)C)c1,-4,11%,0.0,/,8,
Cc1ccc2nc3c(cc2c1)c(NC(=O)C(C)(C)C)nn3CC(C)C,5,/,-39,/,/,
CCOC(=O)c1c(NC(=O)OC)sc2c1CCC2,8,5%,-0.2,32,-6,
CCNS(=O)(=O)c1ccc(CCC(=O)Nc2ccc(C(=O)OC)cc2)cc1,-3,19%,-2.4,/,-2,
Cc1ccc(N2CCCCn3c2nc2c3c(=O)[nH]c(=O)n2C)cc1,6,1%,0.6,-46,11,
Cc1cc2nc(-c3ccc(SCC(=O)N4CCN(C(=O)c5ccco5)CC4)nc3)[nH]c2cc1C,68,2%,4.2,-13,-23,
Cc1cnc(=O)[nH]c1SCc1ccc([N+](=O)[O-])cc1,3,/,0.6,/,/,
Cc1ccc(/C=N/NC(=O)c2cc(-c3ccccc3)nc3ccccc23)o1,7,/,0.9,/,/,
O=C(C1CCCN1S(=O)(=O)c1cccc2cccnc12)N1CCn2c1nc1ccccc12 (stereo not drawn),5,-3%,1.4,-28,6,Arbovirus anti repeat=4
CC(=O)c1cccc(NC(=O)C2CCN(S(=O)(=O)c3ccc(C)cc3)CC2)c1,-12,-2%,-1.2,-15,1,
COc1ccc(CNC(=O)COC(=O)c2ccc(OCc3c(C)noc3C)cc2)cc1OC,0,-5%,0.1,-9,-9,
CCN(CC)S(=O)(=O)c1ccc(N2CCOCC2)c(NC(=S)NC(=O)c2ccco2)c1,24,1%,4.8,/,/,
O=C(Nc1ccccc1N1CCCC1)c1cccnc1Cl,0,5%,-1.0,-4,4,
Cc1ccc(S(=O)(=O)NC(C(=O)N2CCOCCOCCOCC2)c2ccccc2)cc1 (stereo not drawn),0,6%,8.4,/,4,
COc1ccccc1-c1cc(C(F)(F)F)nc(N2CCN(c3ccccc3)CC2)n1,-8,-8%,-0.5,-3,26,Arbovirus anti repeat=1
CCCNC(=S)N1CCN(C)CC1,-5,4%,-1.9,-29,0,
COc1ccc(Cl)cc1N(CC(=O)N(C)C)S(=O)(=O)c1ccc(C)c([N+](=O)[O-])c1,-1,6%,/,/,0,
COCCNC(=S)Nc1ccccc1[N+](=O)[O-],5,1%,0.6,/,2,
COc1cccc(N=Nc2c(O)[nH]c(=S)[nH]c2=O)c1,52,5%,3.5,/,/,
Cc1cc(Cl)c(OCCn2ccnc2)c(Br)c1,1,/,1.9,/,/,
COc1ccc(CNC(=O)C2CCCN(c3ncnc4c3nc3n4CCCCC3)C2)cc1 (stereo not drawn),-2,/,-0.2,/,/,
Cc1ccc(CS(=O)Cc2ccc(C(=O)NCC(C)c3ccccc3)o2)cc1 (stereo not drawn),1,/,-9.2,/,/,
O=C(/C=C/NCc1cccnc1)c1ccc(Br)cc1,-1,/,-0.2,/,/,
N#C/C(=C\c1ccccc1C(F)(F)F)C(=O)Nc1ccccc1,-7,-5%,16,-21,5,
Cn1c(=O)c2c(SCC(=O)Nc3nccs3)nc(C3CC3)nc2n(C)c1=O,-2,-2%,2.2,/,/,
O=C(COC(=O)c1ccc2c(c1[N+](=O)[O-])C(=O)c1ccccc1C2=O)NC1CC1,3,6%,71*,/,-17,
O=C(OCC(=O)N1CCOCC1)C(c1ccccc1)c1ccccc1,/,0%,-1.4,-46,-6,
Oc1nc(Nc2ccccc2)sc1/C=C1\C=Nc2ccccc21,53,64%,2.2,/,/,
CCOc1cccc2sc(N(CCN(CC)CC)C(=O)c3ccc(S(=O)(=O)N4CCCC4)cc3)nc12,1,/,-1.0,/,/,
CCCn1nc(C(=O)NCC(C)(C)N2CCOCC2)c2ccccc2c1=O,4,-4%,-4.5,-152,6,
CC(C)(C)NS(=O)(=O)c1ccc(NC(=O)C2CC(=O)N(CCc3ccc(F)cc3)C2)cc1 (stereo not drawn),3,/,0.5,/,/,
O=C(c1c(Cl)nc2sccn12)N(C(=O)c1c(Cl)nc2sccn12)c1ccc(Cl)cn1,17,15%,11,2,-1,
